ATXN viability: Viability Counterscreen for Primary qHTS for Inhibitors of ATXN expression; S2 cells (HEK-293 line with an ATXN2-luciferase reporter) viability, CellTiter-Fluor protease fluorescence, 24 h; Potency, µM (top dose mostly 56.7 µM), hits mostly cytotoxic; 400,000 compounds, 0.49% hits; AID 651635, 2014; further: potency means the concentration at half of the fitted maximal effect; nearly all actives have a fitted effect of over 40% in size
EPAC2 ag: qHTS for Agonist of cAMP-regulated guanine nucleotide exchange factor 4 (EPAC2): primary screen; 360,000 compounds, 0.079% hits; EPAC2 activation, biochemical qHTS; response scale: 100% = 6.5 mM cAMP response; Rap guanine nucleotide exchange factor 4 (Homo sapiens), Q8WZA2; Potency, µM (doses to about 154 µM), for inactives: top-dose activation, usual class: activators; further: potency means the concentration at half of the fitted maximal effect; nearly all actives have a fitted effect of over 50% in size
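Each well held 100 nM EPAC2, 250 nM RAP1B-BODIPY-GDP and 50 uM GDP. Fluorescence, read at 5-min intervals to 30 min, was referenced to a 6.5 mM cAMP positive control.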
IL-2 act: qHTS of IL-2 Activators | activation, % (series mostly up to about 46 µM) | 360,000 compounds, 0.065% hits | AID 652025, 2013 | IL-2 activation reporter assay, cell-based qHTS; stimulated with anti-CD3/CD4/CD28 beads; in transgenic mouse T cells; in the data active means activation above about 50%; inconclusive means mostly about 30% to 49%; further: 0% is about no effect
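First, unstimulated transgenic mouse T cells were exposed to compound for 60 min. Next, anti-CD3/anti-CD4-coated beads with anti-CD28 were added. Finally, after 18 h at 37 degrees C, EGFP and DsRed were imaged.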
ATXN2 expr inh: Primary qHTS for Inhibitors of ATXN expression; HEK-293 ATXN2-luciferase reporter, luminescence, 24 h; Potency, µM (doses to about 57 µM), for inactives: at the highest dose activity change, negative = inhibition, most hits filed as inhibitors; 360,000 compounds, 0.72% hits; AID 1745845, 2022; further: potency means the concentration at half of the fitted maximal effect; on the % scale 0 is the no-effect control and ±100 the full control effect; nearly all actives have a fitted effect of over 55% in size
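ATXN2-luciferase reporter cells (luciferase flanked by upstream and downstream ATXN2 gene portions) were treated 24 h at 37 °C with compounds at up to 57 uM. SteadyGlo luminescence gave expression; GF-AFC fluorescence gave viability.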
Nrf2 activator: qHTS of Nrf2 Activators | 410,000 compounds, 0.31% hits | Potency, µM (titrated, usually from 46.1 µM), without a hit: at the top dose activation, actives largely listed as activators | AREc32 ARE-luciferase reporter (MCF7-derived line), luminescence, 24 h; further: potency means the concentration at half of the fitted maximal effect; % of control where 0% means no effect; nearly all actives have a fitted effect of over 65% in size
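Luciferase luminescence (Steady-Glo, 30 min at room temperature) served as the read-out of ARE activation in AREc32 cells treated with compounds for 24 hr at 37 deg C.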
* = called active by the depositor; i = inactive; ? = inconclusive; . = not tested or not shown; & = joins results of further samples. Unless noted, the call rests on the fitted dose curve; in most records, active means well fitted curve in the direction sought with a large enough effect; inconclusive means small, poorly fitted or top-dose-only effect, or another doubt; inactive means no such curve, though single readings can be large; an effect the other way counts as inactive or inconclusive. Only part of the results is shown; the hit share may differ from the screen's.

Abbreviations – A = ATXN viability; B = EPAC2 ag; C = IL-2 act; D = ATXN2 expr inh; E = Nrf2 activator
Cc1nc(-c2ccccc2)c(-c2ccccc2)[nH]1
  A: i; B: 6%; C: -0.5; D: -20%; E: 2.7%

Cc1nc2ccc(S(=O)(=O)NCC(=O)NCCN3CCCCCC3)cc2s1
  A: i; B: 26%; C: -0.7; D: -3%; E: 0.0%

O=C(O)/C=C\C(=O)O
  A: i; B: -3%; C: 1.6; D: 5%&6%; E: -0.1%

N#Cc1c(-c2cccc(Br)c2)cc(-c2ccco2)[nH]c1=O
  A: .; B: 0%; C: 2.5; D: -27%; E: ?

O=C1NC[C@H](c2ccccc2)OC(=O)[C@H](Cc2ccc(F)cc2)CC/C=C/C[C@H]1CC(=O)N(CCO)Cc1ccccc1
  A: ?; B: 3%; C: -3.9; D: 0%; E: -4.9%

C[N+](C)(CCOc1ccccc1)Cc1ccccc1
  A: i; B: 6%; C: 0.9; D: 2%; E: 0.4%

CN1Cc2c(N)cccc2[C@H](c2ccccc2)C1
  A: i; B: .; C: .; D: .; E: .

CN1[C@@H]2CCC[C@H]1CC(NC(=O)c1nn(C)c3ccccc13)C2 (some centres undefined)
  A: i; B: 4%; C: 0.9; D: 1%; E: 0.1%

Cc1cccc(N2CCN(C(=O)c3cc4c(=O)n(C)c5ccccc5c4n3C)CC2C)c1 (centres undefined)
  A: .; B: 7%; C: -4.7; D: ?; E: -1.5%

O=C(O)[C@H](O)c1ccccc1
  A: i; B: .; C: .; D: 7%; E: .

CCCCCCNS(=O)(=O)c1ccccc1Br
  A: i; B: 7%; C: 0.1; D: -15%; E: 0.5%

Cc1ccccc1CN1C(=O)c2ccccc2Sc2ccc(C(=O)NCCCN3CCOCC3)cc21
  A: i; B: 13%; C: 1.6; D: .; E: 5.2%&19%

CCN1C(=O)c2cccc3c(N)ccc(c23)C1=O
  A: .; B: 63µM*; C: 15; D: .; E: 12%

Compound profiles, as listed above. Order of values: ATXN viability, EPAC2 ag, IL-2 act, ATXN2 expr inh, Nrf2 activator
N#Cc1c(-c2cccc(Br)c2)cc(-c2ccco2)[nH]c1=O in the list: ., 0%, 2.5, -27%, ?
O=C1NC[C@H](c2ccccc2)OC(=O)[C@H](Cc2ccc(F)cc2)CC/C=C/C[C@H]1CC(=O)N(CCO)Cc1ccccc1 in the list: ?, 3%, -3.9, 0%, -4.9%
Cc1cccc(N2CCN(C(=O)c3cc4c(=O)n(C)c5ccccc5c4n3C)CC2C)c1 (centres undefined) in the list: ., 7%, -4.7, ?, -1.5%
C[N+](C)(CCOc1ccccc1)Cc1ccccc1 in the list: i, 6%, 0.9, 2%, 0.4%

Individual results from the entries so far:
O=C(O)/C=C\C(=O)O in IL-2 act reads 1.6
Cc1ccccc1CN1C(=O)c2ccccc2Sc2ccc(C(=O)NCCCN3CCOCC3)cc21 in IL-2 act reads 1.6
Cc1cccc(N2CCN(C(=O)c3cc4c(=O)n(C)c5ccccc5c4n3C)CC2C)c1 (centres undefined) in Nrf2 activator reads -1.5%
N#Cc1c(-c2cccc(Br)c2)cc(-c2ccco2)[nH]c1=O in EPAC2 ag reads 0%
